Six1-Eya2 inh: blocks human Six1 binding to Eya2. Q15475+O00167. AlphaScreen GST-Six1/His-Eya2 binding, biochemical; stronger effect = lower value; control for the full effect not named in the record. activity change, % (no concentration beside the values). hit rate 0.56% among 360,000; in the data active = activity change below about -65%; inconclusive = about -30% to -65%; inactive = above about -30%; note: % is set by controls: 0 for no effect and ±100 for the full control effect; compound concentration not given in the record
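AlphaScreen luminescence read after one hour at 37 °C in darkness. Pin-transferred compounds met GST-Six1 and His-Eya2 protein (5X stock 250 nM/500 nM) plus glutathione donor and Ni-chelate acceptor beads (5X, 50 ug/mL).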
CtBP-E1A inh: blocks the CtBP interaction with E1A; hit rate 0.49% among 340,000; AID 651724; activity change, % (no concentration beside the values); AlphaScreen GST-E1A/His-CtBP binding, 1536-well; stronger effect = lower value; control for the full effect not named in the record; in the data active means activity change below about -65%; inconclusive means about -30% to -65%; inactive means above about -30%; note: % is set by controls: 0 for no effect and ±100 for the full control effect; compound concentration not given in the record
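AlphaScreen with 125 nM GST-E1A and 125 nM His-CtBP (5X stocks) in Tris pH 8.0, 300 mM NaCl, BSA, Tween 20, TCEP. Compounds preincubated 2 h at 37 deg C, then glutathione donor/nickel acceptor beads added for 1 h at 37 deg C in dark.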
TRPV1 potentiator: human TRPV1 potentiation. hit rate 0.02% among 320,000. Q8NER1. TRPV1-expressing cells, Fluo-8 calcium influx, capsaicin EC20 potentiation; host cell line not named in the record; control for the full effect not named in the record. potentiation, % at 8.33 µM; active means potentiation above 80%; inconclusive means 30% to 80%; inactive means below 30%; note: 0% is about no effect
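Cells expressing TRPV1 were dye-loaded with Fluo-8 and read kinetically: 10 s baseline, 3 min after compound (agonist portion), then 2 min after EC20 capsaicin (allosteric enhancer portion). Calcium-bound dye fluorescence at 480/520 nm.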
PINK1 modulator: modulators of PINK1 expression | hit rate 0.2% among 410,000 | PINK1 immunofluorescence, high-content cytometry, 24 h | Potency, µM (top dose mostly 76.6 µM), for inactives: at the highest dose activation (PINK1 increase), usual class: activators | AID 624263; active = well fitted activation curve with a large enough effect; inconclusive = small, poorly fitted or top-dose-only effect; inactive = flat fitted curve, though single readings scatter; cell line not stated here;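 note: potency is the fitted concentration of half-maximal effect; % of control where 0% means no effect; nearly all actives have a fitted effect of over 65% in size; a mitochondrial uncoupler was the plate control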
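Compound titrations (5 concentrations, 24 h) on a stable cell line; DMSO and CCCP controls. Endpoint: fixed-cell PINK1 immunofluorescence with mitochondrial, cell and nuclear markers, scanned by microplate cytometer.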
D2 agonist: agonists of human D2 dopamine receptor (beta-arrestin) | DiscoveRx PathHunter D2 beta-arrestin, luminescence, 90 min; 100% = 57 uM dopamine signal | hit rate 0.084% among 360,000 | AID 624465 | P14416 | activation, % (no concentration beside the values); in the data active = activation above about 40%; inconclusive = about 15% to 40%; inactive = below about 15%; note: compound concentration not given in the record; the text of the record calls up to 30% inactive
Target sequence (P14416 whole entry, looked up): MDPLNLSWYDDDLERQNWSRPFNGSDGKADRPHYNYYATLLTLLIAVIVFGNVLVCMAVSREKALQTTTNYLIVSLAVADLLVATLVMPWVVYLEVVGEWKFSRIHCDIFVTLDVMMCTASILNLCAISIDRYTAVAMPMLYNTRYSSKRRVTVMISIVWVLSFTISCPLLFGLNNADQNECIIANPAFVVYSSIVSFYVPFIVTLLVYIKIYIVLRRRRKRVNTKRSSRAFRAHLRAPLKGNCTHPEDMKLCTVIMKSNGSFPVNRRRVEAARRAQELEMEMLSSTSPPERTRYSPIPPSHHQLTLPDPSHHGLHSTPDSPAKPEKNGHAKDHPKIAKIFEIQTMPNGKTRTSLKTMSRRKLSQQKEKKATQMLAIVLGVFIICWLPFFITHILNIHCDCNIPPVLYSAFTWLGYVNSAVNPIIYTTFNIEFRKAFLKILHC
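Agonist mode: compounds alone added to overnight-plated D2 PathHunter cells for 90 min at 37 C, with 57 uM final dopamine (EC100) defining full response. Beta-arrestin recruitment detected by chemiluminescent reagent, read after 1 h at ambient temperature.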
D2 PAM: positive allosteric modulators of human D2 dopamine receptor; potentiation, % (test concentration not listed); P14416; hit rate 0.23% among 360,000; AID 624464; DiscoveRx D2 beta-arrestin cells, luminescence, 90 min; 100% = 57 uM dopamine signal; active = potentiation of 50% or more; inconclusive = 30% to 50%; inactive = 30% or less;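 note: compound concentration not given in the record; tested on top of an EC20 dose of dopamine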
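PathHunter beta-arrestin assay in DiscoveRx D2 cells. Compounds were added with an EC20 of dopamine (50 nM final) for 90 min at 37 deg C. Luminescence was read 1 h after detection reagent, with 57 uM dopamine as the EC100 control.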
Sfp inh: inhibitors of Bacillus subtilis Sfp phosphopantetheinyl transferase; hit rate 3.5% among 310,000; Biochemical Sfp PPTase activity, qHTS; Potency, µM, for the others: max response, negative = inhibition, hits mostly inhibitors; Q9F4F7; active = well fitted inhibition curve with a large enough effect; inconclusive = small, poorly fitted or top-dose-only effect, or another doubt; inactive = no such curve, though single readings can be large or run the other way;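 note: the enzyme is Sfp with the accession as filed and its product quenches rhodamine fluorescence; potency is the fitted concentration of half-maximal effect; 0% = enzyme reaction without inhibitor and -100% = no enzyme wells; top concentration of the series not given in the record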
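With Hepes-Na pH 7.6 buffer containing 10 mM MgCl2, Sfp (15 nM) modified BHQ-2-YbbR (12.5 uM) using rhodamine-CoA (5 uM). Two reads 30 minutes apart at 525/598 nm yielded each well's rate.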
Active calls of the source: *; ? = inconclusive; · = no result given; & = joins results of further samples; [ ] = another dose, or the depositor's remark.

SMILES	CtBP-E1A inh	Sfp inh	D2 PAM	PINK1 modulator	Six1-Eya2 inh	TRPV1 potentiator	D2 agonist
COCCCn1c(N)c(C(=O)Nc2ccccc2)c2nc3ccccc3nc21	1.0	3.0%	-3.7	1.2%	-24.7	1.4	-4.1
Cc1cc(C(=O)N2CCC3(CC2)OCCO3)cs1	4.9	-0.9%	-3.6	6.9%[38.3 µM]	4.2	2.5	-2.7
CN1CCN(c2nc(N(C)C)oc(=O)c2C#N)CC1	5.5	18.1%	-0.3	-3.7%	-2.1	8.0	1.0
ON1C2CCCCC2N(O)C1c1ccccc1F (configuration not stated)	4.3	-25.0%	-10.2	1.1%	12.7	-0.4	-4.1
Cc1cc(OCC(=O)NCc2ccncc2)c2c3c(c(=O)oc2c1)CCC3	-1.5	15.5%	-4.8	1.5%	1.7	-19.0	2.0
CCN1CCC2(CC1)NC(=O)c1ccccc1O2	·	19.4%	-3.1	2.1%	1.1	12.5	-6.8
O=C1NC(=S)N(c2ccccc2)C(=O)/C1=C/c1ccco1	-20.0	22.4µM*	-2.9	-0.5%	?	-22.6	-4.1
COc1ccccc1NP1(=O)OCC(C)([N+](=O)[O-])CO1 (configuration not stated)	-24.0	·	-13.2	-0.8%	10.4	·	0.3

Of the compounds above, 2 have four or more nitrogen atoms:
SMILES	CtBP-E1A inh	Sfp inh	D2 PAM	PINK1 modulator	Six1-Eya2 inh	TRPV1 potentiator	D2 agonist
COCCCn1c(N)c(C(=O)Nc2ccccc2)c2nc3ccccc3nc21	1.0	3.0%	-3.7	1.2%	-24.7	1.4	-4.1
CN1CCN(c2nc(N(C)C)oc(=O)c2C#N)CC1	5.5	18.1%	-0.3	-3.7%	-2.1	8.0	1.0

(next part)
SMILES	CtBP-E1A inh	Sfp inh	D2 PAM	PINK1 modulator	Six1-Eya2 inh	TRPV1 potentiator	D2 agonist
COc1ccc2nc3c(C)n(C)ccc-3c2c1	16.1	·	-14.1	2.6%	-13.8	·	-4.2
Cc1ccc(NC(=O)c2ncn(CCCNCCN3CCOCC3)n2)cc1C	-1.2	·	·	-0.6%	6.2	·	-5.0
c1ccc(CN2CCN(Cc3ccc4ccccc4c3)CC2)cc1	-8.8	-36.1%	-33.6	5.7%	?	-4.6	-3.0
O=C(N/N=C/C1C(=O)NC(=S)N(c2ccccc2)C1=O)c1cc(Br)c(O)c(Br)c1 (configuration not stated)	-91.8*	-13.5%	-8.5	1.6%	-92.6*	1.9	-3.4
COC(=O)N(c1ccccc1)P(=O)(Oc1ccccc1)Oc1ccccc1	12.6	1.4%	-6.9	0.9%	5.5	-4.4	-0.9
O=C(/C=C/c1ccccc1)NC(=S)N1C[C@H]2C[C@H](C1)c1cccc(=O)n1C2	2.9	-15.2%	-31.3	0.0%	1.6	0.7	-4.6
ClC1C(Cl)C(Cl)C(Cl)C(Cl)C1Cl (configuration not stated)	8.5&-9.2	15.6%&4.8%	1.7&-8.8	7.8%&1.3%	3.8&10.5	-14.2&-0.1	-3.1&-5.9
COc1cc2c(cc1OC)CN(c1ccc([N+](=O)[O-])c(C(F)(F)F)c1)CC2	0.3	?	-3.3	9.1%	-22.7	0.2	-2.8

Structural class: the compounds so far with fluorine.
SMILES	CtBP-E1A inh	Sfp inh	D2 PAM	PINK1 modulator	Six1-Eya2 inh	TRPV1 potentiator	D2 agonist
ON1C2CCCCC2N(O)C1c1ccccc1F (configuration not stated)	4.3	-25.0%	-10.2	1.1%	12.7	-0.4	-4.1
COc1cc2c(cc1OC)CN(c1ccc([N+](=O)[O-])c(C(F)(F)F)c1)CC2	0.3	?	-3.3	9.1%	-22.7	0.2	-2.8

Following part.
SMILES	CtBP-E1A inh	Sfp inh	D2 PAM	PINK1 modulator	Six1-Eya2 inh	TRPV1 potentiator	D2 agonist
Cc1ccc([N+](=O)[O-])cc1	4.7	·	1.6	5.8%	3.0	-0.9	-1.7
CCCCn1c(O)c(C(C)=NCc2cc(OC)cc(OC)c2)c(=O)[nH]c1=O	-3.9	-5.9%	-8.7	-1.5%	-8.4	-16.7	-3.4
Cc1ccc2c(c1)CC1(CN2C)C(=O)NC(=O)N(c2cccc(C)c2C)C1=O (configuration not stated)	2.6	-8.4%	-5.7	1.7%	-1.1	-6.5	-5.1
Clc1cc(I)cc(Cl)c1NC1=NCCN1	-2.3	·	-33.0	0.3%	-0.6	·	-4.8
COc1ccc(CCNCc2cccn2C)cc1	21.4	-7.9%	-1.9	-0.1%	-8.1	17.6	-0.7
COC(=O)C1=C(c2ccc(OCc3ccccc3)cc2)C[C@@H]2CC[C@H]1N2C(=O)NCc1ccc(C(C)(C)C)cc1	-14.2	·	-3.1	0.8%	-8.1	·	-10.8
O=C1CC(=O)N(Cc2ccccc2)C(=O)N1Cc1ccccc1	18.9	·	-6.7	-0.5%	0.5	·	-2.0
CCOP(=O)(OCC)C(Cc1ccccc1)NC(C)=O (configuration not stated)	3.9	20.5%	-4.2	-0.1%	-11.7	20.3	-2.1

(list continues)
SMILES	CtBP-E1A inh	Sfp inh	D2 PAM	PINK1 modulator	Six1-Eya2 inh	TRPV1 potentiator	D2 agonist
O=[N+]([O-])c1cccc2c([As](=O)(O)O)cccc12	-2.2	9.6%	4.3	1.6%	-0.3	11.8	-1.4
O=c1[nH]c(=S)n(C2CCCCC2)c(O)c1/C=N/N1CCOCC1	·	-10.7%	-28.3	1.0%	5.8	-15.1	-5.9
COc1ccccc1N1C(=O)NC(=O)C(CCc2ccncc2)(CCc2ccncc2)C1=O	10.9	-7.7%	-4.6	·	1.6	6.4	-0.3
CCOC(=O)C1CCN(C(C)C(=O)c2c[nH]c3ccccc23)CC1 (configuration not stated)	2.6	-4.0%	-22.7	-0.9%	6.0	6.0	-5.3
Nc1ccc(N=Nc2ccccc2)cc1	-27.3	7.9%	-11.0	5.6%	?	-1.5	-4.0
Cn1c(O)c(C=NCCN2CCOCC2)c(=O)[nH]c1=S	-1.1	17.7%	-3.7	1.7%	5.0	5.4	0.7
COc1ccc(C(=O)CN2CCOCC2)cc1F	-2.5	9.0%	-9.7	-1.5%	12.7	7.7	-5.2
ClCCOCOCCCl	0.3	·	3.1	1.2%	-6.1	-2.7	-1.2

Next part:
SMILES	CtBP-E1A inh	Sfp inh	D2 PAM	PINK1 modulator	Six1-Eya2 inh	TRPV1 potentiator	D2 agonist
NC(=S)c1cn(C2OC(CO)C(O)C2O)c2ncnc(N)c12 (configuration not stated)	·	7.94µM*	-12.5	-0.6%	-17.2	1.6	-4.6
CC(C)n1c(O)c(C=NCc2ccccc2)c(=O)[nH]c1=S	·	5.8%	-14.2	0.7%	-5.6	-2.6	0.1
Cn1nnc(CC[N+](C)(C)C)n1	-19.8	15.5%	-2.1	-0.2%	-18.0	-4.4	1.6
CCOc1ccc(N2C(=O)NC(=O)/C(=C\c3ccc(N4CCCCC4)o3)C2=O)cc1	6.1	-7.1%	5.6	-0.8%	0.3	-7.1	2.0
O=C(NC1CCCCC1)N1Cc2cc(N3CCOCC3)ccc2-n2nncc2C1	-20.6	·	-0.9	-0.7%	9.7	·	9.2
CC/C(=N\NC(=O)c1ccccc1)c1c(O)n(C2CCCCC2)c(=O)[nH]c1=O	·	0.5%	-8.0	1.8%	1.6	-21.4	0.3
COc1ccc(Cn2c(O)c(/C=N/NC(=O)c3ccccc3O)c(=O)[nH]c2=O)cc1	-71.7*	?	-2.5	0.6%	-87.4*	1.5	0.1
O=C(CCC(=O)N1C[C@H]2C[C@@H](C1)c1cccc(=O)n1C2)NCc1ccccc1	3.4	24.7%	-21.3	-0.4%	2.6	?	-2.8

The list goes on:
SMILES	CtBP-E1A inh	Sfp inh	D2 PAM	PINK1 modulator	Six1-Eya2 inh	TRPV1 potentiator	D2 agonist
CN1CCC(c2c[nH]c3ccccc23)C1 (configuration not stated)	·	-2.7%	-53.8	0.3%	-8.9	14.7	0.8
Nc1c(C(=O)NCc2ccco2)c2nc3ccccc3nc2n1Cc1ccc(F)cc1	-6.6	-73.9%	-3.8	11.7%	2.0	11.6	-0.7
O=C(Nc1ccc(F)cc1)N1Cc2ccccc2-n2nncc2C1	-0.3	·	-6.2	0.9%	-11.8	·	-4.3
O=[N+]([O-])O[C@H]1CO[C@H]2[C@@H]1OC[C@H]2O[N+](=O)[O-]	5.0	·	-5.4	0.5%	-0.3	-7.7	-5.0
COc1ccc(-n2nnnc2C(c2cccc(OC)c2OC)N2CCC(n3c(=O)[nH]c4ccccc43)CC2)cc1 (configuration not stated)	-20.9	·	25.3	-1.6%	-23.2	·	·
NNC(N)=O	4.6	·	-4.1	4.7%	-1.8	8.7	-4.7
CC12CCC(=O)C=C1CC(N1CC1)C1C2CCC2(C)C(O)CCC12 (configuration not stated)	-8.3	·	-11.8	-6.9%	8.3	·	-7.0
COc1cc(N2C(=O)CC(=O)NC2=O)cc(OC)c1OC	2.7	-2.5%	3.2	-0.8%	0.3	2.4	-3.7

(next part)
SMILES	CtBP-E1A inh	Sfp inh	D2 PAM	PINK1 modulator	Six1-Eya2 inh	TRPV1 potentiator	D2 agonist
Clc1ccccc1N1CCN(Cc2ccc3c(c2)OCO3)CC1	-2.6	-25.9%	-0.4	6.7%	-10.1	-15.5	5.8
CCOc1cc2c(cc1OCC)-n1cccc1C(c1ccccc1O)NC2 (configuration not stated)	-0.6	?	-13.7	6.2%	-19.1	-1.2	-0.7
Cc1cccnc1-n1c(-c2ccco2)nc2ccccc2c1=O	-2.9	0.5%	-12.6	-0.1%	-2.4	20.6	-3.3
CC1CCN2c3nc4ccccn4c(=O)c3CC3(C(=O)N(C)C(=O)N(C)C3=O)C2C1 (configuration not stated)	3.1	-5.3%	-10.7	1.7%[38.3 µM]	2.2	15.8	-3.4
CCOC(=O)C1=C(N)OC2=C(C(=O)CCC2)C12C(=O)N(C)c1ccccc12 (configuration not stated)	0.0	18.3%	-3.8	1.4%	11.9	12.5	-9.5
ClCC(Br)CBr (configuration not stated)	-18.8	·	-8.2	0.3%	0.9	-3.6	-1.1
COC(=O)C1=CO[C@H](C)[C@H]2CN3CC[C@@]4(C(=O)Nc5ccccc54)[C@@H]3C[C@H]12	7.1	·	-9.0	0.3%	-0.6	·	-3.2
Cc1ccc(-c2ccc(=O)n(CCC(=O)N3CCC4(CC3)OCCO4)n2)cc1	-19.6	17.1%	-10.0	0.2%	4.5	-24.1	-3.3

Screening data: PubChem, National Center for Advancing Translational Sciences (NCATS)

An excerpt (hit frequency here may not be typical).
